Assay outcomes deposited in PubChem BioAssay by National Center for Advancing Translational Sciences (NCATS).
CtBP-E1A blk – inhibitors of CtBP/E1A interaction | activity change, % (concentration not given with the values) | 0.49% of 340,000 active | AlphaScreen GST-E1A/His-CtBP binding, 1536-well; hits give low values; control for the full effect not named in the record | AID 651724; in the data active means activity change below about -65%; inconclusive means about -30% to -65%; inactive means above about -30%; also: % is scaled to controls: 0 for no effect and ±100 for the full control effect
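In 5 uL wells, 23 nL compound meets equimolar GST-E1A and His-CtBP (5X stock 125 nM each) for 2 h, 37 °C. Beads (5X, 50 ug/mL) then 1 h, 37 °C, dark.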
gsp ag – activates gsp, the McCune-Albright syndrome mutation; gsp mutant cells, cAMP HTRF, 30 min; control for the full effect not named in the record; Potency, µM (doses to about 76.9 µM), without a hit: top-dose activation (cAMP increase), most hits filed as activators; 0.13% of 340,000 active; AID 624287; active = well fitted activation curve with a large enough effect; inconclusive = small, poorly fitted or top-dose-only effect, or another doubt; inactive = no such curve, though single readings can be large or run the other way; cell line not stated here;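 also: phosphodiesterase inhibitor Ro 20-1724 added with compounds to block cAMP breakdown; potency is read from the fitted curve at half-maximal effect; nearly all actives have a fitted effect of over 60% in size; about a fifth of the inactives were tested at one dose only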
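Cells in DMEM/10% FBS with G418 were pretreated with compounds in DMSO plus […] (300 uM stock) for 30 min at 37C. cAMP was measured by HTRF (cAMP-d2 plus anti-cAMP antibody-K) after 30 min at room temperature.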
Six1-Eya2 inh – Six1/Eya2 interaction inhibition. AID 651725. activity change, % (no concentration beside the values). 0.56% of 360,000 active. Q15475+O00167. AlphaScreen GST-Six1/His-Eya2 binding, biochemical; hits give low values; control for the full effect not named in the record; in the data active = activity change below about -65%; inconclusive = about -30% to -65%; inactive = above about -30%; also: % is scaled to controls: 0 for no effect and ±100 for the full control effect; compound concentration not given in the record
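AlphaScreen with GST-Six1 and His-Eya2 (5X mix: 250 nM and 500 nM), glutathione donor and nickel acceptor beads; buffer 50 mM Tris pH 8.0, 300 mM NaCl, 1 mM TCEP; 1 h at 37 C in the dark.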
D2 PAM – positive allosteric modulators of human D2 dopamine receptor | P14416 | DiscoveRx D2 beta-arrestin cells, luminescence, 90 min; 100% = 57 uM dopamine signal | potentiation, % (test concentration not listed) | 0.23% of 360,000 active; active = potentiation of 50% or more; inconclusive = 30% to 50%; inactive = 30% or less;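 also: compound concentration not given in the record; tested on top of an EC20 dose of dopamine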
Target sequence (P14416 whole entry, looked up): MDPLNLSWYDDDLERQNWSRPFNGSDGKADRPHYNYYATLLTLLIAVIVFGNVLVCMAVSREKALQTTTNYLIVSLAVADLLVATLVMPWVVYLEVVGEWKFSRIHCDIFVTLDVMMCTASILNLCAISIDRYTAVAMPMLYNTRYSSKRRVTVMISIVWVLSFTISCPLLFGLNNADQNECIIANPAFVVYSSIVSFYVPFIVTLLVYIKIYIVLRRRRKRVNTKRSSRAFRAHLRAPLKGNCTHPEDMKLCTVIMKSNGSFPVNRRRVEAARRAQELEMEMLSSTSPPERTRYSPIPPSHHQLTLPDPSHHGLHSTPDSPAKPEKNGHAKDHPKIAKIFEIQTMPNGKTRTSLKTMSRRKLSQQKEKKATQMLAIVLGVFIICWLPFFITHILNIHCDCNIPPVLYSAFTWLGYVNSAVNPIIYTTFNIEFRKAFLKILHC
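D2 cells co-treated with compound plus 50 nM dopamine (EC20) for 90 min at 37 deg C to detect potentiation. Beta-arrestin recruitment was read as enzyme-fragment luminescence after 1 h at ambient temperature. Full response was set by 57 uM dopamine.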
gsp antag – gsp mutant antagonism. gsp-mutant cells, cAMP HTRF, 30 min; control for the full effect not named in the record. Potency, µM (top dose mostly 76.9 µM), without a hit: at the highest dose activity change, negative = inhibition, most hits filed as inhibitors. 0.4% of 340,000 active. AID 624288; active = falling curve of any shape with a large fitted effect; inconclusive = falling curve, mostly with a smaller effect; inactive = flat or rising curve; cell line not stated here;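 also: intracellular cAMP measured with PDE inhibitor Ro 20-1724 present during compound exposure; potency is read from the fitted curve at half-maximal effect; % is scaled to controls: 0 for no effect and ±100 for the full control effect; nearly all actives have a fitted effect of over 65% in size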
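HTRF cAMP measurement after 30 min RT detection following 30 min, 37C compound treatment alongside […] (added as 300 uM solution) in G418-selected cells seeded at 2000/well and grown 16–24 h.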
D2 ag – human D2 receptor agonism in beta-arrestin assay; P14416; AID 624465; 0.084% of 360,000 active; DiscoveRx PathHunter D2 beta-arrestin, luminescence, 90 min; 100% = 57 uM dopamine signal; activation, % (no concentration beside the values); in the data active = activation above about 40%; inconclusive = about 15% to 40%; inactive = below about 15%; also: compound concentration not given in the record; the text of the record calls up to 30% inactive
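Agonist mode: compounds alone added to overnight-plated D2 PathHunter cells for 90 min at 37 C, with 57 uM final dopamine (EC100) defining full response. Beta-arrestin recruitment detected by chemiluminescent reagent, read after 1 h at ambient temperature.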
Starred values were filed as active, the others as inactive; ? = inconclusive; / = no result given; [ ] = dose if it differs, or a comment.

smiles	CtBP-E1A blk	gsp ag	Six1-Eya2 inh	D2 PAM	gsp antag	D2 ag
O=C(CCc1nc(-c2ccccc2F)no1)NC1CCCCC1	-3	3%	6	1	-8%	-1.9
N#CSCC(=O)c1cccc2ccccc12	3	-2%	-14	-9	-6%	-6.3
COc1cc(NC(=O)COC(=O)CC(C)(C)C)c(C)cc1[N+](=O)[O-]	5	1%	-4	-9	-4%	0.6
CNC(=O)c1[nH]cnc1C(=O)Nc1ccc(Cl)cc1	-6	/	-3	-5	3%	1.0
CCOC(=O)c1nn(-c2ccccc2C)c(=O)c2c(N)scc12	0	-28%[15.4 µM]	1	-6	-16%	9.1
CC(C)NC(=O)c1ccc(CSCc2ccccc2Cl)o1	0	-22%[15.4 µM]	5	0	-5%	3.7
O=C(Cc1cccc(NC(=O)C2CCN(C(=O)CCc3ccccc3)CC2)c1)Nc1cccc(C(=O)N2CCCCC2)c1	0	/	-4	-1	2%	-1.0
CCn1c(CSc2nc3ccccc3s2)nc2ccccc21	-4	-25%	-1	-8	?	-0.9
CN1CCN(C(=S)C(=O)Nc2ccc(Br)cc2)CC1	3	7%[15.4 µM]	3	-2	3%	-5.8
CC(C)(C)OC(=O)CC[C@@H](C(=O)N1CCN(C(=O)OC(C)(C)C)CC1)n1cc(C(CO)NC(=O)OC(C)(C)C)nn1 (stereo partly drawn)	9	/	2	-2	-5%	-1.4
O=C(c1ccc(Cl)cc1Cl)C1(n2cncn2)Oc2ccccc2C1O (stereo not drawn)	-4	3%	3	1	-15%	-1.6
O=[N+]([O-])c1ccccc1C=CC=NN=Cc1ccccc1O	4	3%	-17	-15	-17%	-2.0
CCCCCCSc1nsc(NC(C)=O)n1	1	4%	13	-17	6%	0.0
O=C(COC(=O)c1ccccc1F)NC(=O)NC1CCCC1	0	?	3	0	17%	0.2
CC(=O)Nc1cccc(-c2nc3ccccc3s2)c1C	/	-16%	1	0	4%	-2.6
O=C(Nn1cnnc1)C(Sc1ccccc1)c1ccccc1 (stereo not drawn)	8	16%	4	-6	-5%	-1.6

Continued (2 carried over from the part before).
smiles	CtBP-E1A blk	gsp ag	Six1-Eya2 inh	D2 PAM	gsp antag	D2 ag
CC(=O)Nc1cccc(-c2nc3ccccc3s2)c1C	/	-16%	1	0	4%	-2.6
O=C(Nn1cnnc1)C(Sc1ccccc1)c1ccccc1 (stereo not drawn)	8	16%	4	-6	-5%	-1.6
COc1ccc(C(=O)NC(C)c2nccs2)cc1OC1CCN(C(C)C)CC1 (stereo not drawn)	3	?	2	-7	10%	-1.6
C[C@H]1CN=C(N(C)C)N1CC1CCCC1	-11	/	2	-8	9%	-3.2
Cn1ccnc1C(=O)c1cc(SCC(=O)NCc2ccccc2)nc2ccccc12	/	13%[15.4 µM]	0	2	-3%	0.5
CCOc1ccccc1N/C=C/C(=O)C(C)(C)C	-2	-6%	-1	-5	0%	-1.7
Cc1ccc(OCC(=O)Nc2nc(-c3ccccn3)cs2)c(C)c1	?	16%[15.4 µM]	?	-11	-12%	5.3
COc1cc(C(=O)NNC(=O)c2ccoc2C)cc(OC)c1OC	-22	-1%	-1	-4	-9%	-1.4
CSc1ccc(CN2CCCC(CNC(=O)c3ccc(F)cc3)C2)cc1 (stereo not drawn)	5	16%[15.4 µM]	7	-18	16%	0.1
O=C(CC[C@H]1O[C@@H](n2ccc(=O)[nH]c2=O)[C@H](O)[C@@H]1O)N[C@@H](Cc1ccccc1)C(=O)NCc1ccccc1	-3	/	9	-9	/	-5.9
CCCNC(=O)CSc1nnc(C)s1	13	-20%	0	2	12%	-3.2
Cc1cc([N+](=O)[O-])nn1CCCC(=O)N1CCN(c2ccc(F)cc2)CC1	-4	-19%	7	-6	3%	0.5
Cc1ccc(C(=O)N(C)CCOc2ccccc2)cc1S(=O)(=O)N1CCCCC1	0	-8%	-3	-1	-19%	-2.3
c1ccc(C[C@H]2CN=C(Nc3ccccc3)N2CC2CCC2)cc1	5	-1%	-8	-25	-1%	-4.9
Cn1nc(C(=O)N2CCN(C(c3ccccc3)c3ccccc3)CC2)c2ccccc2c1=O	0	-59%[inhibitor]	-1	-4	-56%	2.2
Cc1c(N2C(=O)SC(CC(=O)O)C2=O)c(=O)n(-c2ccccc2)n1C (stereo not drawn)	-1	10%	5	-7	4%	-2.4
Cc1ccc(C23CC4CC(CC(C(=O)NC(C(=O)O)C(C)C)(C4)C2)C3)cc1 (stereo not drawn)	0	-217%[inhibitor]	6	-1	-9%	-2.7
COc1ccc(CN(C)CC2CCCN(CCc3ccc(Cl)cc3)C2)cc1OC (stereo not drawn)	-15	-33%[inhibitor]	-21	-24	2%	-0.4
CC(=O)OCC(=O)[C@@]1(O)CC[C@H]2[C@@H]3C[C@H](C)C4=CC(=O)C=C[C@]4(C)[C@H]3[C@@H](O)C[C@@]21C	0	/	-3	0	-4%	-4.6
CCc1nc2ccc(C(=O)NCCCN3CCCC3=O)cn2c1N(C)C(=O)c1cccc(OC)c1	-24	/	13	-7	/	-5.4
Cc1cc(C(=O)CSc2nc(N)cc(=O)[nH]2)c(C)n1-c1cccc(F)c1	-10	-54%[inhibitor]	-8	-1	-11%	-3.8
CCCCSc1nc2sc3c(c2c(=O)n1-c1ccccc1)CCN(C)C3	/	-10%	-2	-7	-8%	-3.5
O=c1cc(CN2CCN(c3ccccn3)CC2)nc2sccn12	/	?	-1	2	5%	7.6
COCCN(CC(=O)Nc1cccc(C)c1C)C(=O)Cn1c(=O)cnc2ccccc21	5	18%	6	-3	12%	0.2
O=C(COC(=O)CCC(=O)c1ccc(Cl)cc1)NCc1ccc(F)cc1	0	3%[15.4 µM]	2	-9	2%	-2.0
N#Cc1c(NC(=O)CCC(=O)O)sc2c1CCCCC2	-9	2%[15.4 µM]	-8	4	15%	-0.1
O=C(Nc1nccs1)C1CC=CCC1C(=O)OCC(F)(F)C(F)F (stereo not drawn)	/	20%	12	-3	8%	-1.5
O=C(N/N=C/c1ccco1)c1cc(-c2ccncc2)nc2ccccc12	-2	2%	0	-3	12%	0.3
COc1ccc(OC(=O)CCc2c[nH]c3ccccc23)cc1	-4	6%[15.4 µM]	-16	-2	13%	0.0
O=c1[nH]ncn1-c1ccccc1C(F)(F)F	-9	-34%[inhibitor]	5	17	11%	-4.0
Cc1ccc2oc(=O)n(Cc3ccc(OC(C)C)cc3)c2c1	20	-2%	24	0	-8%	3.3
C=CCN(c1ccc(C(=O)NCCCn2ccnc2)cc1)S(C)(=O)=O	1	-56%[inhibitor]	4	1	5%	6.0
COC(=O)C1=CN(CC2CCCO2)C=C(C(=O)OC)C1c1cccc(O)c1 (stereo not drawn)	-1	2%[15.4 µM]	-1	-11	0%	-4.1
Cc1ccc(S(=O)(=O)NCCC(=O)Oc2ccc3ccc(=O)oc3c2)cc1	-11	?	-2	-10	-19%	-1.7
O=C(Nc1ccccc1N1CCOCC1)[C@@H]1O[C@H](CO)[C@H](O)[C@H](O)[C@H]1O	-6	/	3	0	/	-3.5
COC(=O)c1[nH]nc(-c2ccccc2)c1-c1ccccc1	-9	-6%[15.4 µM]	5	-7	0%	-0.7
Cn1c(=S)[nH]c2[nH]c(=O)cnc2c1=O	17	0%[15.4 µM]	5	-5	15%	-1.8
CCN(CC)C(=O)CN(c1cccc(C(F)(F)F)c1)S(C)(=O)=O	-3	14%	4	-3	-14%	-0.5
CC1(C)Cc2c(sc(/N=C/N3CCCC3)c2C#N)C(C)(C)N1	-8	20%	-14	2	6%	-3.5
COCC(=O)Nc1ccc2c(c1)OCC(=O)N2Cc1ccccc1F	10	-50%[inhibitor]	0	0	12%	-0.8
Cc1cccc(NC(=O)c2cc([N+](=O)[O-])ccc2N2CCN(C)CC2)c1	17	8%[15.4 µM]	-3	-7	-10%	-1.9
COc1cccc(N=C2SC(CC(=O)Nc3ccccc3)C(=O)N2Cc2ccccn2)c1 (stereo not drawn)	-2	21%[15.4 µM]	-3	-1	-28%	4.3
CCOc1ccc(/C=C(\C#N)C(=O)Nc2ccccn2)cc1	/	-5%	-5	-30	3%	-3.2
Cc1cc(NC(=O)c2cc(S(=O)(=O)N3CCCCC3)ccc2C)n(-c2ccccn2)n1	0	2%	2	-1	-9%[15.4 µM]	-0.2
CC(=O)c1ccc(S(=O)(=O)NCC(=O)NC(c2nc3ccccc3[nH]2)C(C)C)cc1 (stereo not drawn)	-15	8%	0	-7	-8%	0.9
O=C(CN(C1CCCCC1)S(=O)(=O)c1ccc(Cl)cc1)NCc1ccncc1	4	-3%	1	-15	-6%	-0.5
CC(C)(C)n1nc2c(c1NC(=O)c1ccccc1C(F)(F)F)CS(=O)(=O)C2	9	5%	9	0	10%	-3.9
COc1cccc(C(C(=O)NC2CCCC2)N(C(=O)c2ccco2)c2ccccc2F)c1OC (stereo not drawn)	-4	5%[15.4 µM]	0	-7	8%	-4.2
CCOc1ccc(C2CC(c3ccc(CC)cc3)Nc3nc(N)nn32)cc1 (stereo not drawn)	3	6%	6	-1	4%	1.5
CC(=O)c1cccc(NC(=O)Cn2cnc(S(=O)(=O)N3CCCCC3)c2)c1	1	15%	0	-9	12%	0.5
O=[N+]([O-])c1cccc(Nc2c([N+](=O)[O-])ccc3nonc23)c1	4	-9%[15.4 µM]	8	12	10%	1.0
CN1CCN(C(=O)OCCOCCOC(=O)N2CCN(C)CC2)CC1	8	31%[15.4 µM]	6	-10	2%	-2.3
Cc1ccccc1NC(=O)NNC(=O)OC(C)(C)C	6	2%[15.4 µM]	3	-5	8%	-1.1
O=C(NCc1ccc(Cl)cc1)c1ccc(CNc2c(N3CCCC3)c(=O)c2=O)cc1	/	26%	-4	-2	5%	1.6
CC1CCN(CCCCOc2cccc(Br)c2)CC1	-3	-8%	-1	-47	9%	-3.7
